# PMP22 txn: Cell-based coincidence reporter assay to measure PMP22 gene transcription in S16 Pmp22-F2sN cells - Primary screen; actives 2% (n = 43,000); AID 1508649, 2021; S16 Pmp22-F2sN Schwann cells (luciferase reporters placed in the Pmp22 gene), FLuc/NLuc coincidence luminescence, 24 h; Potency, µM (top dose mostly 57.5 µM), for the others: at the highest dose activity change, negative = inhibition, usual class: inhibitors; active = clear falling dose curves in both reporters; inconclusive = both reporters move, but less clearly or upward; inactive = either reporter flat; the % is the NLuc reporter signal; further: on the % scale 0 is the no-effect control and ±100 the full control effect; some results filed as inactive show a strong effect at the top dose
#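 Schwann cells carrying the coincidence reporter were exposed to library compounds for 24 h at 37C, then lysed and read for FLuc and, after quenching, NLuc luminescence on a CCD imager.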
# HTT promoter inh: Primary qHTS for Identification of Small Molecule Inhibitors of Huntingtin Promoter Activity | actives 0.93% (n = 48,000) | AID 1508623, 2021 | HEK293 HTT promoter firefly luciferase reporter (activity 0% = vehicle and -100% = no light), 24 h | Potency, µM (doses to about 57.5 µM), for the others: top-dose activity change, negative = inhibition, actives largely listed as inhibitors; active means well fitted inhibition curve with a large enough effect; inconclusive means small, poorly fitted or top-dose-only effect; inactive means no such curve, though single readings can be large or run the other way; further: nearly all actives have a fitted effect of over 50% in size
#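 Firefly luciferase readout (Dual-Glo, 10 min RT) after 24 h, 37 °C compound exposure (final up to 57.5 uM) of HEK293 reporter cells cultured 24 h beforehand; PTC124 at 50 uM final as control inhibitor; activity scaled vehicle 0%, zero RLU -100%.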
# The depositor's hits bear a star; ? = inconclusive; / = not tested or not shown; & = joins results of further samples; [ ] = another dose, or the depositor's remark. Potency means the concentration at half of the fitted maximal effect.
1	Cc1ccc(Cn2cccc(C(=O)Nc3cc([N+](=O)[O-])ccc3C)c2=O)cc1
2	Cc1nnc(NC(=O)c2cccn(Cc3ccccc3)c2=O)s1
3	CCC12CN3CC(CC)(CN(C1)C3c1ccccn1)C2=O (stereo not given)
4	CCCC[N+]1(C)[C@H]2CC(OC(=O)[C@H](CO)c3ccccc3)C[C@H]1[C@H]1O[C@H]12 (stereo not given in full)
5	CCOP(=S)(OCC)O/N=C(\C#N)c1ccccc1
6	COc1ccc2c3c1O[C@H]1[C@@H](O)C=C[C@H]4[C@@H](C2)N(C)CC[C@@]341
7	O=C(COc1ccccc1F)N1CCN(Cc2cc(=O)n3nc(-c4ccccc4Cl)sc3n2)CC1
8	CC(=O)N(C)c1cccc(-c2ccnc3c(C(=O)c4cccs4)cnn23)c1

assay / compound,1,2,3,4,5,6,7,8
HTT promoter inh,21.1%,11.4%,-18.9%,-2.6%,5.7%,-25.6%[116 µM],-17.6%,5.5%
PMP22 txn,?,-23.4%,?,/,/,/,-85.5%,/

9	COc1cc(CC(C)N)c(OC)cc1Br (stereo not given)
10	Cc1ccc(-n2c(/C=C/c3ccc(Br)s3)nc3ccccc3c2=O)cc1
11	COc1ccc(OCC(=O)N2CCN(Cc3cc(=O)n4nc(-c5ccccc5C)sc4n3)CC2)cc1
12	COc1ccc(Cl)cc1NC(=O)CN1C(=O)CN=C(c2ccccc2)c2cc(Cl)ccc21
13	COc1ccc2c(c1)CN(C)CC2c1ccc(Cl)c(Cl)c1 (stereo not given)
14	CCCCC(CC)COC(=O)c1ccccc1C(=O)OCC(CC)CCCC (stereo not given)
15	Cc1ccc2nc(NC(=O)c3cccn(Cc4ccc(Cl)cc4)c3=O)sc2c1
16	COc1cccc(-n2c(/C=C\c3ccc(Cl)cc3)nc3ccccc3c2=O)c1

assay / compound,9,10,11,12,13,14,15,16
HTT promoter inh,-3.7%[116 µM],?,-38.2%,-39.3%,-5.8%,18.4%[116 µM],-16.1%,-2.0%
PMP22 txn,/,?,?,?,/,/,8.0%,?

17	CC(C)=C[C@@H]1[C@@H](C(=O)OCc2coc(Cc3ccccc3)c2)C1(C)C
18	CC(=O)NC1CCSC1=O (stereo not given)
19	COc1ccc(NC(C)=O)cc1NC(=O)c1cccn(Cc2ccccc2)c1=O
20	COP(=O)(OC)C(O)C(Cl)(Cl)Cl (stereo not given)
21	Cc1cccc(CN2C(=O)CN=C(c3ccccc3)c3ccccc32)c1
22	O=C(O)CCCc1ccc(N(CCCl)CCCl)cc1
23	COc1ccc(C(=O)c2c(C)n(CCN3CCOCC3)c3ccccc23)cc1
24	O=C1CC(c2c(F)cccc2Cl)c2c(c3ccccc3oc2=O)O1 (stereo not given)

assay / compound,17,18,19,20,21,22,23,24
HTT promoter inh,8.4%,13.4%,-12.2%,3.0%,?,-5.9%&-6.3%,-24.1%&-5.1%,14.1%
PMP22 txn,/,/,1.7%,/,-22.9%,/,/,-7.0%

25	S=C(SSC(=S)N1CCCCC1)N1CCCCC1
26	Cc1ccc(C(C)(C)C)c(OCC(=O)Nc2ccc(Cl)cc2C(=O)c2ccccc2)c1
27	CC(=O)Nc1cc([As](=O)(O)O)ccc1O
28	COc1cc(OC)c(OC)cc1C=O
29	N#Cc1cccc(NC(=O)CSc2nc3c(cc2C#N)N2CCC3CC2)c1
30	Cc1sc2c(c1C)C(c1ccc(Cl)cc1)=N[C@@H](CC(=O)OC(C)(C)C)c1nnc(C)n1-2
31	CNCC(=O)c1ccc(O)c(O)c1
32	Cc1cc(NC(=O)c2cccn(Cc3cccc([N+](=O)[O-])c3)c2=O)no1

assay / compound,25,26,27,28,29,30,31,32
HTT promoter inh,-6.9%,5.7%,8.0%,-1.8%,41.2%[activator],-24.8%,-6.6%,-8.0%
PMP22 txn,/,-4.4%,/,/,-23.5%,/,/,-28.6%

33	COC(=O)c1ccc(NC(=O)c2cccn(Cc3ccccc3C)c2=O)cc1
34	O=S(=O)(c1ccc(Cl)cc1)c1ccc(Cl)cc1
35	CC(C)NCC(O)c1ccccc1Cl (stereo not given)
36	CC1(C)CC/C(=C/c2ccc(Cl)cc2)C1(O)Cn1cncn1 (stereo not given)
37	CC(N[C@H]1C[C@H]1c1ccccc1)c1ccc2c(c1)OCCO2 (stereo not given in full)
38	Cc1cccc(-c2nc(CN3C(=O)CN=C(c4ccccc4)c4ccccc43)c(C)o2)c1
39	O=c1c2ccccc2nc(/C=C\c2cccc(Br)c2)n1-c1ccc(O)cc1
40	O=C(Nc1ccc(F)c(Cl)c1)N(Cc1ccc2c(c1)OCO2)C1CCN(Cc2ccccc2)CC1

assay / compound,33,34,35,36,37,38,39,40
HTT promoter inh,?,-7.6%[116 µM],-4.1%,-18.2%[116 µM],6.3%,?,-21.4%,?
PMP22 txn,-0.6%,/,/,/,/,-26.0%,?,?

41	O=C(O)c1ccc(=O)[nH]c1
42	COC(=O)c1cncn1C(C)c1ccccc1 (stereo not given)
43	Oc1ccc2c3c1O[C@H]1[C@@H](O)C=C[C@H]4[C@@H](C2)NCC[C@@]341
44	Cc1[nH]nc2ccc(-c3cncc(OC[C@@H](N)Cc4c[nH]c5ccccc45)c3)cc12
45	Cc1cc(C)cc(-n2c(/C=C/c3cccc(F)c3)nc3ccccc3c2=O)c1
46	C=C[C@@H]1CN2CCC1C[C@H]2[C@H](O)c1ccnc2ccccc12 (stereo not given in full)
47	CCC(=O)O[C@@H]1C=C2CCC3C(CCC4(C)C3CC[C@@H]4OC(=O)CC)C2CC1 (stereo not given in full)
48	Cc1ccc2scc(N3CCN(C)CC3)c(=O)c2c1

assay / compound,41,42,43,44,45,46,47,48
HTT promoter inh,-1.2%,-4.2%,-7.4%[116 µM],?,?,-17.8%,14.3%,53.1%[activator]
PMP22 txn,/,/,/,/,2.3%,/,/,-25.4%

# 13 entries from above, arranged by SMILES length, smallest number first.
35	CC(C)NCC(O)c1ccccc1Cl (stereo not given)
42	COC(=O)c1cncn1C(C)c1ccccc1 (stereo not given)
48	Cc1ccc2scc(N3CCN(C)CC3)c(=O)c2c1
34	O=S(=O)(c1ccc(Cl)cc1)c1ccc(Cl)cc1
37	CC(N[C@H]1C[C@H]1c1ccccc1)c1ccc2c(c1)OCCO2 (stereo not given in full)
33	COC(=O)c1ccc(NC(=O)c2cccn(Cc3ccccc3C)c2=O)cc1
46	C=C[C@@H]1CN2CCC1C[C@H]2[C@H](O)c1ccnc2ccccc12 (stereo not given in full)
39	O=c1c2ccccc2nc(/C=C\c2cccc(Br)c2)n1-c1ccc(O)cc1
45	Cc1cc(C)cc(-n2c(/C=C/c3cccc(F)c3)nc3ccccc3c2=O)c1
38	Cc1cccc(-c2nc(CN3C(=O)CN=C(c4ccccc4)c4ccccc43)c(C)o2)c1

assay / compound,35,42,48,34,37,33,46,39,45,38
HTT promoter inh,-4.1%,-4.2%,53.1%[activator],-7.6%[116 µM],6.3%,?,-17.8%,-21.4%,?,?
PMP22 txn,/,/,-25.4%,/,/,-0.6%,/,?,2.3%,-26.0%

47	CCC(=O)O[C@@H]1C=C2CCC3C(CCC4(C)C3CC[C@@H]4OC(=O)CC)C2CC1 (stereo not given in full)
44	Cc1[nH]nc2ccc(-c3cncc(OC[C@@H](N)Cc4c[nH]c5ccccc45)c3)cc12
40	O=C(Nc1ccc(F)c(Cl)c1)N(Cc1ccc2c(c1)OCO2)C1CCN(Cc2ccccc2)CC1

assay / compound,47,44,40
HTT promoter inh,14.3%,?,?
PMP22 txn,/,/,?

# Other compounds
49	CN(C)CCc1c[nH]c2cccc(OP(=O)(O)O)c12
50	COc1cc(C(c2c(O)c3ccccc3oc2=O)c2c(C)n(C)n(-c3ccccc3)c2=O)ccc1OCC(=O)O (stereo not given)
51	O=c1[nH]c2ccccc2n1C1CCNCC1
52	CN1CCN(C(=O)O[C@H]2c3nccnc3C(=O)N2c2ccc(Cl)cn2)CC1
53	Cc1c(C(c2ccc(Cl)cc2Cl)c2c(O)c3ccccc3oc2=O)c(=O)n(-c2ccccc2)n1C (stereo not given)
54	Cc1cc(-n2c(/C=C/c3ccc(Br)s3)nc3ccccc3c2=O)ccc1Br
55	CN1CCN(c2ccc([N+](=O)[O-])c3no[n+]([O-])c23)CC1
56	Cc1ccc(NC(=O)N(Cc2ccc3c(c2)OCO3)C2CCN(Cc3ccccc3)CC2)cc1F

assay / compound,49,50,51,52,53,54,55,56
HTT promoter inh,-11.4%[116 µM],5.8%,4.4%,-1.6%&-2.8%,-27.2%,?,?,-22.0%
PMP22 txn,/,-3.7%,/,/,-94.1%,3.5%,/,?

57	Cc1ccc([N+](=O)[O-])[c]2c1[O][Hg]2
58	COc1ccccc1-n1c(/C=C/c2ccccc2)nc2ccccc2c1=O
59	CC1(N2CCC(n3c([C@@H]4CCCNC4)nc4ccccc43)CC2)CCCCCCC1
60	CC(C)c1ccc(OCC(=O)N2CCN(CCc3ccncc3)CC2)cc1
61	N[C@@H](Cc1ccc(Oc2cc(I)c(O)c(I)c2)c(I)c1)C(=O)O
62	Cc1ccc2c(=O)n(-c3cccc(Cl)c3)c(=O)[nH]c2c1
63	Cc1nnc2n1-c1sc(CCC(=O)N3CCOCC3)cc1C(c1ccccc1Cl)=NC2
64	O=c1[nH]c2cc(Cl)ccc2n1C1CCNCC1

assay / compound,57,58,59,60,61,62,63,64
HTT promoter inh,?,1.4%,-3.4%,20.5%,1.0%,-0.2%,1.8%,12.6%
PMP22 txn,/,-2.7%,/,7.4%,/,-8.8%,/,/

65	Cc1ccc(-n2c(/C=C/c3cccs3)nc3ccccc3c2=O)cc1C
66	C=CC[C@]1(O)CC[C@H]2[C@@H]3CCC4=CC(=O)CCC4=C3C=C[C@@]21C
67	Cc1cc(O)ccc1Cl
68	CNC(=O)c1ccc(N2C(=S)N(c3ccc(C#N)c(C(F)(F)F)c3)C(=O)C23CCC3)cc1F
69	Cc1nnc(NC(=O)c2cccn(Cc3cccc([N+](=O)[O-])c3)c2=O)s1
70	CC(O)CN1CCN(CC(=O)[O-])CCN(CC(=O)[O-])CCN(CC(=O)[O-])CC1.[Gd+3] (stereo not given)
71	C[C@]12COC(=O)C[C@@H]1CC[C@@H]1[C@H]2CC[C@@]2(C)[C@H]1CC[C@]2(C)O
72	C[C@]12CC[C@H]3[C@@H](CCC4=CC(=O)CC[C@@]43C)[C@@H]1CC[C@@H]2C(=O)O

assay / compound,65,66,67,68,69,70,71,72
HTT promoter inh,-35.8%,-9.7%,9.5%,?,-9.9%,10.3%,-10.7%,0.5%
PMP22 txn,?,/,/,/,-15.1%,/,/,/

73	N#Cc1cc2c(nc1SCC(=O)Nc1ccc(Cl)c(C(F)(F)F)c1)C1CCN2CC1
74	O=C(Nc1ccc(F)c([N+](=O)[O-])c1)c1cccn(Cc2ccccc2)c1=O
75	Oc1cc(Cl)ccc1Oc1ccc(Cl)cc1Cl
76	ClC1=C(Cl)[C@]2(Cl)[C@@H]3[C@@H]4C[C@@H]([C@H]5O[C@@H]45)[C@@H]3[C@@]1(Cl)C2(Cl)Cl
77	O=c1oc2ccccc2c(O)c1C(CC(O)c1ccc(-c2ccc(Br)cc2)cc1)c1ccccc1 (stereo not given)
78	Clc1ccc(CO/N=C(\Cn2ccnc2)c2ccc(Cl)cc2Cl)c(Cl)c1
79	O=C(COc1ccc(Br)cc1)Nc1ccc(Cl)cc1C(=O)c1ccccc1
80	c1ccc2c(c1)Nc1ccccc1S2

assay / compound,73,74,75,76,77,78,79,80
HTT promoter inh,15.8µM*,-12.9%,?,1.6%[116 µM],-9.4%,?,3.1%,6.8%
PMP22 txn,?,-28.0%,/,/,/,/,0.6%,/

81	CNC(C)(C)Cc1ccccc1
82	CCc1c(C(=O)C(N)=O)c2c(OCC(=O)O)cccc2n1Cc1ccccc1
83	Cc1ccccc1Cn1cccc(C(=O)Nc2cc(Cl)ccc2C#N)c1=O
84	Nc1ccncc1
85	Cc1ccc2c(c1)C(Cc1nc3ccccc3c(=O)n1-c1ccc(Br)cc1)C(=O)N2 (stereo not given)
86	COC(=O)c1ccccc1NC(=O)c1cccn(Cc2cccc(Cl)c2)c1=O

assay / compound,81,82,83,84,85,86
HTT promoter inh,8.0%,-6.8%,-1.1%,1.4%,-27.7%,?
PMP22 txn,/,/,-23.0%,/,-11.2%,?

# An excerpt; the hit share may differ from the screen's.
